# Pf growth 96h – inhibits malaria parasite growth, 96 h | P. falciparum luciferase reporter growth, 96 h | AID 504834 | 320,000 tested, 6.9% active | Potency, µM (doses to about 28.7 µM), inactives show top-dose activity change, negative = inhibition, most hits filed as inhibitors; also: potency is read from the fitted curve at half-maximal effect; % is scaled to controls: 0 for no effect and ±100 for the full control effect
#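 Readout is luminescence from an integrated firefly luciferase in P. falciparum. Red cells, 2% hematocrit and 0.05% parasitemia final, were cultured with compound through two parasite generations (96 hours) at 37 C, 5% CO2.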
# CHX counter – counter-screen for Shiga toxin inhibitors: cycloheximide protein synthesis inhibition | max response, % | cell reporter, cycloheximide protein synthesis inhibition counterscreen | 300,000 tested, 12% active; in the data active = max response mostly above about 13%, no sharp cut-off; inactive = mostly below about 14%; also: read at 38.3 µM for the half of the compounds with a filed dose; 0% is about no effect
# FBPA Giardia inh – Giardia lamblia aldolase inhibition | AID 2451 | 290,000 tested, 0.71% active | A8B2U2 | Potency, µM (doses to about 59.6 µM), without a hit: at the highest dose activity, negative = inhibition, usual class: inhibitors | purified Giardia FBPA; also: potency is read from the fitted curve at half-maximal effect; % is scaled to controls: 0 for no effect and ±100 for the full control effect; nearly all actives have a fitted effect of over 55% in size
# Target sequence (A8B2U2 whole entry, looked up): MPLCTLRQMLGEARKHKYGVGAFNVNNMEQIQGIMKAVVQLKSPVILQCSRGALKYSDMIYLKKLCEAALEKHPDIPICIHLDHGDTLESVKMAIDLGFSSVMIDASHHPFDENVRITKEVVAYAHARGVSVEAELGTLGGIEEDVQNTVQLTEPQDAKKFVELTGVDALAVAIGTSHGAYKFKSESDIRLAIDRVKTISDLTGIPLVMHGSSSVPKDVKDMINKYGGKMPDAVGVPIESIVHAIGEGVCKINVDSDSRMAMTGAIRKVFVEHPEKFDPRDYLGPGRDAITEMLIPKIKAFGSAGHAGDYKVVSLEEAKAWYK
#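 Giardia FBPA (40 nM reagent) was preincubated 10 min at RT with compound (up to 57.5 uM final), then substrate plus GAPDH/TPI/NAD/arsenate coupling system with diaphorase/resazurin was added; resorufin fluorescence (525/598 nm) was read after 20 min.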
# Shiga inhibitor – Shiga toxin inhibition. Vero cells, Shiga toxin protein synthesis inhibition reporter. inhibition, % at 38.7 µM. 290,000 tested, 9.2% active; in the data active = inhibition mostly above about 28%, no sharp cut-off; inactive = mostly below about 43%; also: 0% is about no effect
# Pf growth 48h – inhibits P. falciparum growth in the first generation, 48 h; P. falciparum luciferase growth in erythrocytes, 48 h; Potency, µM (titrated, usually from 28.7 µM), for inactives: at the top dose activity change, negative = inhibition, usual class: inhibitors; 310,000 tested, 5.9% active; AID 504832; also: potency is read from the fitted curve at half-maximal effect; % is scaled to controls: 0 for no effect and ±100 for the full control effect
#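 Growth was read as firefly luciferase luminescence after a 48 h, 37 C, 5% CO2 exposure of compounds to reporter-bearing P. falciparum cultures (0.1% parasitemia, 2% hematocrit final) in Albumax-supplemented RPMI 1640.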
# Starred values were filed as active, the others as inactive; ? = inconclusive; . = no result given; [ ] = another dose, or the depositor's remark. Unless noted, calls follow the shape of the dose curve; as a rule, active = well fitted curve in the direction sought with a large enough effect; inconclusive = small, poorly fitted or top-dose-only effect, or another doubt; inactive = no such curve, though single readings can be large; an effect the other way counts as inactive or inconclusive.
1. CCN(c1ccc(NC(=O)COC(=O)c2ccc(S(=O)(=O)N3CCCC3)cc2)cc1)C(C)C
2. CCN(CC)CCCNC(=O)c1ccc2c(SCC(=O)O)c3c(nc2c1)CCC3
3. CCCN(CCC)Cc1c(C(=O)N/N=C/c2ccoc2)nnn1-c1nonc1N
4. CCOC(=O)c1cc(CC)sc1/N=C/c1c(O)[nH]c(=S)[nH]c1=O
5. O=C(O)c1ccc(N=C2SCC(=O)N2Cc2ccccc2)cc1
6. Cc1ccc(CNC(=O)CNC(=O)c2c(C)nn(C)c2Cl)cc1

Assay by compound	1	2	3	4	5	6
Pf growth 96h	?	-21%	39%[activator]	-6%	16%	4%
CHX counter	-1	-8	-9	0	-3	-2
FBPA Giardia inh	-18%	0%	0%	?	16%	5%
Shiga inhibitor	-12	-11	-4	-2	-2	-13
Pf growth 48h	.	-12%	2%	22%	4%	2%

# Compound profiles, from the list above. Values in the order: Pf growth 96h	CHX counter	FBPA Giardia inh	Shiga inhibitor	Pf growth 48h
# CCCN(CCC)Cc1c(C(=O)N/N=C/c2ccoc2)nnn1-c1nonc1N in the list: 39%[activator]	-9	0%	-4	2%
# CCOC(=O)c1cc(CC)sc1/N=C/c1c(O)[nH]c(=S)[nH]c1=O in the list: -6%	0	?	-2	22%
# CCN(c1ccc(NC(=O)COC(=O)c2ccc(S(=O)(=O)N3CCCC3)cc2)cc1)C(C)C in the list: ?	-1	-18%	-12	.
# O=C(O)c1ccc(N=C2SCC(=O)N2Cc2ccccc2)cc1 in the list: 16%	-3	16%	-2	4%

# Following part
7. Cc1cc(C)nc(/N=C(\N)Nc2ccc(F)c([N+](=O)[O-])c2)n1
8. Cc1onc(-c2ccccc2Cl)c1C(=O)NNC(=O)C1CCN(Cc2ccccc2)CC1
9. Cc1ccc(C(=S)N2CCCCCC2)cc1
10. CCOc1cc(C(=O)N2CCN=C2SC)cc(OCC)c1OCC
11. O=C(COc1ccccc1)NNC(=O)COc1ccc([N+](=O)[O-])cc1
12. CN(C)c1cc(N)c2c(n1)CCC2 (tested in a mixture with another compound)

Assay by compound	7	8	9	10	11	12
Pf growth 96h	?	10%	?	-1%	0%	-15%
CHX counter	1	-6	11	-3	-9	1
FBPA Giardia inh	1%	0%	-2%	2%	0%	9%
Shiga inhibitor	-2	-4	1	-8	-16	-4
Pf growth 48h	?	16%	-2%	-4%	10%	-13%

# Next section (2 carried over from the part before).
11. O=C(COc1ccccc1)NNC(=O)COc1ccc([N+](=O)[O-])cc1
12. CN(C)c1cc(N)c2c(n1)CCC2 (tested in a mixture with another compound)
13. CC(C)[C@@H]1COC(c2cccc(C3=N[C@H](C(C)C)CO3)c2)=N1
14. Cc1c(-c2ccc(F)cc2)nc(N)c(C#N)c1-c1cccnc1
15. CC1(C)CC2CC(C)(CN2C(=O)c2ccc([N+](=O)[O-])cc2[N+](=O)[O-])C1 (stereo not given)
16. CCCCn1c(N)c(N(CC)C(=O)c2ccc(-c3ccc(Cl)cc3)o2)c(=O)[nH]c1=O
17. Cc1cccc2c1-c1sc(C(=O)NCCCN3CCc4ccccc4C3)cc1CO2
18. Cc1ccc(OCCNC(=O)/C=C/c2ccc([N+](=O)[O-])cc2)cc1C

Assay by compound	11	12	13	14	15	16	17	18
Pf growth 96h	0%	-15%	9%	-4%	-18%	5%	?	?
CHX counter	-9	1	34*	-1	-4	.	1	2
FBPA Giardia inh	0%	9%	2%	4%	-14%	.	?	0%
Shiga inhibitor	-16	-4	46*	14	13	.	15	8
Pf growth 48h	10%	-13%	65%[activator]	-13%	-18%	?	?	3%

# Reprinted at random: 3 entries already listed.
17. Cc1cccc2c1-c1sc(C(=O)NCCCN3CCc4ccccc4C3)cc1CO2
14. Cc1c(-c2ccc(F)cc2)nc(N)c(C#N)c1-c1cccnc1
18. Cc1ccc(OCCNC(=O)/C=C/c2ccc([N+](=O)[O-])cc2)cc1C

Assay by compound	17	14	18
Pf growth 96h	?	-4%	?
CHX counter	1	-1	2
FBPA Giardia inh	?	4%	0%
Shiga inhibitor	15	14	8
Pf growth 48h	?	-13%	3%

# Following part:
19. COc1cc2cc(-c3ccc(O)cc3O)nc(C)c2cc1OC
20. COc1ccc(OC)c(S(=O)(=O)N2CCN(c3ccc(F)cc3)CC2)c1
21. O=C(COc1ccc(Cl)cc1)Nc1ccccc1CO
22. Cc1ccc(-c2nc3c(cnn3-c3ccccc3)c(=O)o2)cc1
23. O=C(NN=C1CCCCCCCCCCC1)c1cccc(S(=O)(=O)N2CCOCC2)c1
24. OCc1cnc(SCc2ccccc2)n1Cc1ccccc1

Assay by compound	19	20	21	22	23	24
Pf growth 96h	?	0%	?	-5%	-28%	3%
CHX counter	3	0	20*	-3	-3	8
FBPA Giardia inh	-7%	11%	1%	4%	3%	-5%
Shiga inhibitor	21	-10	37	-3	-8	-11
Pf growth 48h	?	-11%	1%	.	4%	1%

25. CC(=O)c1ccc(NC(=O)C(C)OC(=O)C(C)Oc2cccc(C)c2)cc1 (stereo not given)
26. CC1(C)S[C@@H]2[C@H](NC(=O)[C@@H](N)c3ccc(O)cc3)C(=O)N2[C@H]1C(=O)O
27. COc1ccc(CN(Cc2cccn2C)S(=O)(=O)c2ccccc2)cc1
28. COc1ccc(OC2C(=O)N(Cc3ccc4c(c3)OCO4)C2c2cccs2)cc1 (stereo not given)
29. COc1ccc(Oc2nc3c(c(=O)n(C)c(=O)n3C)n2Cc2ccccc2)cc1
30. Cc1ccc([N+](=O)[O-])cc1NC1CC(O)C(CO)O1 (stereo not given)
31. COc1ccc(C(=O)N2CCN(c3ncccn3)CC2)cc1
32. COCCCNC(=O)CC(NS(=O)(=O)c1ccc(C)cc1)c1ccc(OC)cc1 (stereo not given)
33. COCCNC(=O)CSc1nc2scc(-c3ccccc3)c2c(=O)[nH]1

Assay by compound	25	26	27	28	29	30	31	32	33
Pf growth 96h	9%	.	1%	11%	-4%	3%	-16%	.	81%[activator]
CHX counter	-3	.	-3	-3	-6	1	-5	-2	-1
FBPA Giardia inh	1%	-12%[21.7 µM]	-11%	11%	0%	5%	4%	2%	9%
Shiga inhibitor	-2	.	5	-21	-17	-5	-8	-5	-4
Pf growth 48h	5%	.	?	-1%	.	16%	18%	8%	-1%

# Bioassay records: PubChem, National Center for Advancing Translational Sciences (NCATS)

# The list is partial; rates above refer to the full screens.
